Bioassay records from PubChem BioAssay.
VDR inh: vitamin D3 receptor (human) inhibition. P11473. VDR-SRC2-3 peptide fluorescence polarization, 2 h. Potency, µM, without a hit: max response, negative = inhibition, actives largely listed as inhibitors. 400,000 compounds, 0.93% hits; active = well fitted inhibition curve with a large enough effect; inconclusive = small, poorly fitted or top-dose-only effect, or another doubt; inactive = no such curve, though single readings can be large or run the other way; note: series mostly up to about 120 µM
Target sequence (P11473 whole entry, looked up): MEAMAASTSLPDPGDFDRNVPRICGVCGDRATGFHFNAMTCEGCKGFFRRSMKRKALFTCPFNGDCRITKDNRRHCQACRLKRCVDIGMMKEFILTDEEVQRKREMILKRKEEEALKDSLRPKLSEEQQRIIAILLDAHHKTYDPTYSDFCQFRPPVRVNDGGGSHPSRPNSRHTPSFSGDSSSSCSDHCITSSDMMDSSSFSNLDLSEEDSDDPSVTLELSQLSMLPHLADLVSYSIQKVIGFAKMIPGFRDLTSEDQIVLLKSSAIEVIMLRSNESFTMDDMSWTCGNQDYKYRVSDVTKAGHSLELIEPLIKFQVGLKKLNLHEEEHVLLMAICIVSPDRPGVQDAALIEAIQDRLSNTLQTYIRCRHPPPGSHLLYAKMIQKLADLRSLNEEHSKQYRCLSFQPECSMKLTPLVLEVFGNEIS
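After 23 nl compound addition and a short centrifugation, plates sat for 2 hours at ambient temperature; polarization of fluorescence then indicated loss of VDR binding to peptide SRC2-3.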
Starred values were filed as active, the others as inactive; ? = inconclusive; & = joins results of further samples. % is set by controls: 0 for no effect and ±100 for the full control effect; potency is the fitted concentration of half-maximal effect. The list is partial; count on the stated rates, not on these rows.

SMILES | VDR inh
O=C1CC(N2CCC(n3c(=O)[nH]c4ccccc43)CC2)C(=O)N1Cc1ccccc1 (stereo not drawn) | 12%
COC(=O)C1=C(c2cc3ccccc3o2)C[C@@H]2CC[C@H]1N2C(=O)NCCNC(C)=O | 22%
NCCCC(=O)OC1N=C(c2ccccc2Cl)c2cc(Br)ccc2NC1=O (stereo not drawn) | 3%
COCCNC(=O)Cn1cc(C=C2C(=O)NC(=O)NC2=O)c2ccccc21 | -11%
CN1C(=O)/C(=C\c2ccc(N3CCCCC3)o2)C(=O)NC1=S | -1%
c1ccc(CCc2ccc3n2Cc2cnnn2-c2ccccc2-3)cc1 | -11%
COc1ccc2oc3c(c2c1)NC(=O)CN=C3c1ccccc1 | -6%
COc1cc(OC)cc(-n2nc(C(=O)N3CCC4(CC3)OCCO4)c3ccccc3c2=O)c1 | -1%
COc1ccc(CNCC(=O)N2CCC3(CC2)OCCO3)cc1 | -2%
O=C1CCN(C(=O)C(Cl)Cl)N1 | 8%
O=P(Nc1ccccc1Cl)(c1ccccc1)c1nc2c(s1)CCCC2 (stereo not drawn) | -8%
N#CC1c2ccccc2-n2nncc2CN1Cc1cc(Cl)cc(Cl)c1 (stereo not drawn) | 20µM*
CC1CN1P(=O)(Oc1ccccc1)N1CC1C (stereo not drawn) | -14%
O=C(Cc1ccc(Br)cc1)N1CCN(Cc2ccccc2)CC1 | ?
Cn1c(O)c(C=NCCN2CCNCC2)c(=O)n(C)c1=O | 17%
CC(C)n1c(=O)c(C=Nc2ccc(F)cc2)c(O)n(Cc2ccco2)c1=O | -10%
O=C1NC(=S)NC(=O)C1c1ccccc1 | ?
C[C@@H]1CCC2[C@@H](C)C(=O)O[C@@H]3OC4(C)CCC1[C@@]23OO4 (stereo partly drawn) | -3%
COC(=O)C1=C(c2c(C)noc2C)C[C@@H]2CC[C@H]1N2C(=O)N1CCc2cc(OC)c(OC)cc2C1 | -5%
CCN(CC)C(=O)c1ccc(NC(=S)NC(=O)CCc2ccccc2)cc1 | -20%
COC(=O)C1=C(c2ccc(F)cc2OCc2ccccc2)C[C@@H]2CC[C@H]1N2C(=O)N1CCC(C)CC1 | 1%
CCCCn1c(O)c(C(CC)=NCCN2CCOCC2)c(=O)[nH]c1=O | -2%
COc1ccc(OC)c(N=Cc2c(O)n(Cc3ccccc3)c(=S)[nH]c2=O)c1 | -12%
O=c1[nH]c(=O)n(Cc2ccco2)c(O)c1C=NCCN1CCNCC1 | -21%
c1cnc(N2CCCC3(CCNCC3)C2)nc1 | -1%

(next part)
SMILES | VDR inh
Cc1cccc(-n2c(C)nc3ccccc3c2=O)n1 | -5%
ClCCN(CCCl)c1ccc(C=Cc2ccncn2)cc1 | -22%
Oc1cc2c(cc1O)[C@H]1c3ccccc3CN[C@H]1CC2 | -16%&-20%
O=C1NC(=S)NC(=O)C1Cc1ccccc1 | ?
Cc1ccc(C(=O)NC2CCN(S(=O)(=O)c3ccc(C)cc3)CC2)cc1 | ?
CC(C)c1ccc(N2C(=O)CC(=O)NC2=O)cc1 | -14%
CCN(CC)P(=O)(c1nccn1C)N(CC)CC | 9%
O=C(O)CCC1NCC2CC1CN1CCCCC21 (stereo not drawn) | 0%
COC(=O)C1=Nc2ccccc2/C1=C\c1c(O)n(-c2ccc(OC)cc2)c(=O)[nH]c1=O | ?
Clc1ccc(OCC#CCN2CCCCCC2)cc1 | -3%
CC(ON1CC1(C(F)(F)F)C(F)(F)F)(C(N)=O)C(N)=O (stereo not drawn) | -19%
c1cnc2c(c1)ncn2C1CCNCC1 | 16%
O=C(Nc1ccc(Cl)cc1C(=O)c1ccccc1)c1cc(Cl)cc(Cl)c1 | -4%
COc1cccc(CCNCc2cccc(C(F)(F)F)c2)c1 | 4%
CCN(CCNc1ccc([N+](=O)[O-])c2cccnc12)S(=O)(=O)c1ccc(Cl)cc1 | -21%
CCCN1CCO[C@@H]2c3cc(O)ccc3OC[C@@H]21 | 2%
COc1ccc(/C=C/c2cc(O)cc(O)c2)cc1 | -3%
COC(=O)C1=C(c2ccc(OC(F)(F)F)cc2)C[C@@H]2CC[C@H]1N2C(=O)NCCO | -7%
CCc1cccc(CC)c1N(COC)C(=O)CCl | -10%&3%
O=C(Nc1cccc(Cl)c1)OC1CN2CCC1CC2 (stereo not drawn) | -18%
CC1(C)CN=C(NCc2ccccc2Cl)S1 | -5%
O=P1(NC2CCCC2)COc2ccccc2OC1 | -3%
O=C(Cn1ncc2c3ccccc3n(Cc3ccccc3F)c2c1=O)N1CCC2(CC1)OCCO2 | -21%
CCN1C(=O)NC(=O)C2(CCCC2)C1=O | -22%
O=C(OC1CC2CCC(N2)C1C(=O)O)c1ccccc1 (stereo not drawn) | 0%

(continued)
SMILES | VDR inh
CN1CCC(OC(=O)C2c3ccccc3Oc3ccccc32)CC1 | -16%
O=C(CCC(=O)N1C[C@H]2C[C@@H](C1)c1cccc(=O)n1C2)NCc1ccc(F)cc1 | 4%
C=C(C)[C@@]12OC3(c4ccccc4)O[C@@H]1[C@@H]1[C@@H]4O[C@]4(CO)[C@@H](O)[C@]4(O)C(=O)C(C)=C[C@H]4[C@@]1(O3)[C@H](C)[C@H]2OC(=O)/C=C/C=C/c1ccccc1 | -1%
C1=NCCc2c1[nH]c1ccccc21 | -5%
C=CCN1CC[C@]23c4c5ccc(O)c4OC2C(=O)CC[C@]3(O)C1C5 (stereo partly drawn) | 9%
CCC1CN2CCc3cc(OC)c(OC)cc3C2CC1CC1NCCc2c1[nH]c1ccc(O)cc21 (stereo not drawn) | -4%
CC(C)C[C@H](NC(=O)[C@@H]1CCCN1C(=O)[C@@H](N)Cc1ccc(O)cc1)C(=O)NCC(N)=O | 11%
CN1CCN(C(=O)Cc2ccccc2)CC1 | -13%
O=[N+]([O-])c1ccc2nc(N3CCNCC3)ccc2c1 | -2%&-30%
O=c1[nH]c(=O)n(C2CCCCCC2)c(O)c1C=NCC1CCCO1 (stereo not drawn) | 13%
O=C1NC(=O)C(=Cc2cc([N+](=O)[O-])ccc2N2CCCCC2)C(=O)N1 | -4%
C[C@]12C[C@H](O)[C@@H](O)CC1=CCC1C2CC[C@@]2(C)C1CC[C@@H]2O (stereo partly drawn) | 0%
COC1=CC2C3Cc4ccc(OC)c(O)c4[C@]2(CCN3C)CC1=O (stereo partly drawn) | 2%
COc1ccc(F)cc1C(=O)C1CCCN(Cc2cnc(C)s2)C1 (stereo not drawn) | 6%
COc1cccc(C2CC3C(=O)C=CC2N3Cc2ccccc2)c1 (stereo not drawn) | ?
O=C(c1ccc(CS(=O)(=O)c2ccccc2)o1)N1CCC2(CC1)OCCO2 | -9%
CN1C2CCC1CC(OC(=O)c1ccc([N+](=O)[O-])cc1)C2 (stereo not drawn) | 6%
CCCCn1c(=O)c(C(=O)NCc2ccncc2)c(O)c2ccccc21 | 2%
COc1cc2c(cc1OC)[C@H](C)NCC2 | 4%
COC(=O)C1=C(c2ccc(-c3ccccc3)c(F)c2)C[C@@H]2CC[C@H]1N2C(=O)NCc1ccco1 | -3%
COc1ccc(C(C)=O)cc1CC(C(=O)c1ccc(Br)cc1)N(C)C (stereo not drawn) | -11%
COc1ccc(-n2c(C)cc(C(=O)C[N+]34CCN(CC3)CC4)c2C)cc1 | 0%
O=C(Nc1ccc(OC(F)(F)F)cc1)c1cccn(Cc2ccccc2Cl)c1=O | 20%
CC1(C)C2([N+](=O)[O-])CN3CC1([N+](=O)[O-])CN(C2)C3c1ccccn1 (stereo not drawn) | -14%
Cc1ccccc1Cn1cccc(C(=O)Nc2nc3ccccc3s2)c1=O | 0%

Given tab-delimited: part of the list above.
smiles	VDR inh
COc1ccc(F)cc1C(=O)C1CCCN(Cc2cnc(C)s2)C1 (stereo not drawn)	6%
COC1=CC2C3Cc4ccc(OC)c(O)c4[C@]2(CCN3C)CC1=O (stereo partly drawn)	2%
CN1CCC(OC(=O)C2c3ccccc3Oc3ccccc32)CC1	-16%
Cc1ccccc1Cn1cccc(C(=O)Nc2nc3ccccc3s2)c1=O	0%
O=[N+]([O-])c1ccc2nc(N3CCNCC3)ccc2c1	-2%&-30%

Additional structures follow.
SMILES | VDR inh
COP(=O)(OC)[C@@H](O)C(Cl)(Cl)Cl | -1%
CC(=O)CC(c1ccc(O)cc1)c1c(O)c2ccccc2oc1=O (stereo not drawn) | -5%
CCc1ccc(N2C(=O)NC(=O)/C(=C\c3cc(C)n(-c4cc(C(=O)O)cc(C(=O)O)c4)c3C)C2=O)cc1 | -13%
COC(=O)C1=C(c2ccc(C(C)=O)cc2)C[C@@H]2CC[C@H]1N2C(=O)NC1CCCCC1 | -9%
N#Cc1cc2c(nc1SCC(=O)Nc1cccc(C(F)(F)F)c1)C1CCN2CC1 | -8%
Cc1cccc(N2CCN(CCc3ccccc3)CC2)c1C | 3%
COc1ccc(P2(=O)Nc3ccccc3N2)cc1 | -15%
O=[N+]([O-])/C=C/c1ccc2c(c1)OCO2 | 7.1µM*
CCN1CCN(c2ccc([N+](=O)[O-])cc2C#N)CC1 | 13%
C=CCn1c(O)c(/C(C)=N/N2CCN(C)CC2)c(=O)[nH]c1=O | 2%
C[C@H]1C(=O)O[C@@H]2CCN3CC=C(COC(=O)[C@](C)(O)[C@]1(C)O)[C@H]23 | 6%&3%
COc1cc2c(c(OC)c1OC)-c1ccc(O)c(=O)cc1[C@H](N)CC2 | 6%
CC(C)N(C(=O)CCl)c1ccccc1 | -2%&3%
CCC1(c2ccccc2)C(=O)NC(=O)N(C(=O)c2ccccc2)C1=O (stereo not drawn) | 0%
COC(=O)C1=C(c2ccc(Cl)c(C(F)(F)F)c2)C[C@@H]2CC[C@H]1N2C(=O)NCC1CC1 | 3%
CSc1nc(C)c(Br)c(N2CC2)n1 | 0%
OCC1CO1 (stereo not drawn) | -2%
O=P(/C(=N/O)N1CCOCC1)(N1CCOCC1)N1CCOCC1 | 25%
S=C=Nc1ccccn1 | -3%
COc1cc2c(cc1O)C[C@H]1NCCc3cc4c(c-2c31)OCO4 | -24%
CC(C)N1CCC2(CC1)NC(CO)(CO)CO2 | 2%
COC1=CC(=O)OC(/C=C/c2ccccc2)C1 (stereo not drawn) | 2%
O=C(c1ccc2c(c1)OCO2)C1CCCN(Cc2ccc(F)c(F)c2)C1 (stereo not drawn) | 11%
CN1C2CCC1C(C(=O)O)C(O)C2 (stereo not drawn) | -16%
CN(C)C(=O)Oc1ccc2c(c1)O/C(=C\c1cccc([N+](=O)[O-])c1)C2=O | 11%

Looked up above:
`COc1cc2c(cc1O)C[C@H]1NCCc3cc4c(c-2c31)OCO4` – VDR inh: -24%
`CCN1CCN(c2ccc([N+](=O)[O-])cc2C#N)CC1` – VDR inh: 13%
`CC(=O)CC(c1ccc(O)cc1)c1c(O)c2ccccc2oc1=O` (stereo not drawn) – VDR inh: -5%
`COP(=O)(OC)[C@@H](O)C(Cl)(Cl)Cl` – VDR inh: -1%
`C=CCn1c(O)c(/C(C)=N/N2CCN(C)CC2)c(=O)[nH]c1=O` – VDR inh: 2%

Other entries:
SMILES | VDR inh
C/C(=N\N1CCCCCC1)c1c(O)n(-c2ccccc2C)c(=O)[nH]c1=O | 3%
COC(=O)c1nc(-c2ccc3c(n2)C(=O)C(N)=C(OC)C3=O)c(N)c(-c2ccc(OC)c(OC)c2O)c1C | 10µM*
CCC(=NCc1ccco1)c1c(O)n(-c2ccccc2)c(=O)[nH]c1=O | -5%
Cc1ccccc1-n1c(O)c(C=Nc2ccc3c(c2)OCO3)c(=O)[nH]c1=O | -9%
CC(=O)[C@H]1CCC2C3CC=C4C[C@@H](OS(=O)(=O)O)CC[C@]4(C)C3CC[C@@]21C (stereo partly drawn) | ?
CCC(=Nc1ccccc1N)c1c(O)[nH]c(=O)[nH]c1=O | -2%
CC(C)COc1ccc(Cc2c(O)[nH]c(=S)[nH]c2=O)cc1 | -23%
COc1cccc(Oc2coc3cc(OC(=O)N(C)C)ccc3c2=O)c1 | -10%
O=C(O)C1C2CCC(O2)C1C(=O)Nc1ccc(F)c(F)c1 (stereo not drawn) | -13%
COc1ccc(-n2c(O)c(/C(C)=N/Nc3ccccc3)c(=O)[nH]c2=O)cc1 | 6%
Cc1c(C)c2ccc(OCC(=O)N3CCC(C(=O)O)(c4ccccc4)CC3)c(C)c2oc1=O | -12%
CCCNC(=O)N1[C@H]2CC[C@@H]1C(C(=O)OC)=C(c1cccc(Cl)c1)C2 | 6%
Nn1c(CSc2nc3ccccc3o2)nnc1CSc1nc2ccccc2o1 | ?
CCN(CC)C(=O)c1ccc(NC(=O)COC(=O)c2ccc(Cl)s2)cc1 | ?
COc1ccc2c3c1OC1C(O)C=CC4[C@@H](C2)N(C)CC[C@]314 (stereo partly drawn) | -9%
CCc1ccc(-n2c(O)c(/C=N/NC(=O)c3ccncc3)c(=O)[nH]c2=O)cc1 | 10%
COc1cccc(CN2CCCC(C(=O)c3ccccc3SC)C2)c1O (stereo not drawn) | 6%
CCCC(C)C1C(C#N)=C(N)Oc2c1c(=O)oc1ccccc21 (stereo not drawn) | -6%
CC(=O)CCC(C)=O | 14%
CCC(=NCc1ccco1)c1c(O)n(-c2ccc(C)cc2)c(=O)[nH]c1=O | 5%
Cc1cccc(C)c1NC1=NCCCS1 | -2%&-15%&1%&11%
C=CCN1C[C@H](C)N([C@@H](c2ccccc2)c2ccc(C(=O)N(CC)CC)cc2)C[C@H]1C | 13%
Clc1ccc(C(Cl)(Cl)Cl)c(Cl)c1 | 1%
O=C(O)COc1ccc(Br)cc1C(c1c(C(=O)O)[nH]c2ccccc12)c1c(C(=O)O)[nH]c2ccccc12 | ?
COc1cc(OC)c([C@H]2C=C(C)[C@H]3C[C@@H]2C3(C)C)c(OC)c1 | 10%

Among those listed so far, these have a cyano group:
SMILES | VDR inh
N#CC1c2ccccc2-n2nncc2CN1Cc1cc(Cl)cc(Cl)c1 (stereo not drawn) | 20µM*
N#Cc1cc2c(nc1SCC(=O)Nc1cccc(C(F)(F)F)c1)C1CCN2CC1 | -8%
CCN1CCN(c2ccc([N+](=O)[O-])cc2C#N)CC1 | 13%
CCCC(C)C1C(C#N)=C(N)Oc2c1c(=O)oc1ccccc21 (stereo not drawn) | -6%
